# Assay outcomes deposited in PubChem BioAssay by several laboratories.
# MLL AF4-AF9 inh: MLL-AF4/AF9 protein interaction inhibition; 350,000 compounds, 0.47% hits; AlphaScreen, biotin-AF4 peptide binding to FLAG-AF9; inhibition, % at 10 µM; P42568; AID 651704;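 active means every replicate reaching a set inhibition limit, whatever the replicate mean, cut at about 25% in these data; inconclusive means mean inhibition reaches that limit but some replicates miss it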;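 further: 0% = plate neutral control median and 100% = total signal loss; the record names both 10 and 1 µM as test concentration; the first replicate is given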
# Target sequence (P42568 whole entry, looked up): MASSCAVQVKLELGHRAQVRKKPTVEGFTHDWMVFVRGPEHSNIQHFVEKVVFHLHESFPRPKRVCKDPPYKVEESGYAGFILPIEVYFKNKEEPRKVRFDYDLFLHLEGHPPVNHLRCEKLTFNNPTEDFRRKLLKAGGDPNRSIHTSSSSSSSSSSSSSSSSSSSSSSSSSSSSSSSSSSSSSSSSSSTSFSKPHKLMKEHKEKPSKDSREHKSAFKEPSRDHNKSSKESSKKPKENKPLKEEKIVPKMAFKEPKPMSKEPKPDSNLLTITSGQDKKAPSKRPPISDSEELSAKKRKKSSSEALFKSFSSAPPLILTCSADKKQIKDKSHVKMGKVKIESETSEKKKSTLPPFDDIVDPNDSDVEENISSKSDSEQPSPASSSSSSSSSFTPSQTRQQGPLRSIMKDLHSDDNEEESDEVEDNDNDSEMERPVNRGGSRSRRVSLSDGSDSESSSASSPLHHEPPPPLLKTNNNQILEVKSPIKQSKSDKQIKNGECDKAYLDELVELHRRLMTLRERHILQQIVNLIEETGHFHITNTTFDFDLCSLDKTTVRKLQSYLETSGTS
# HNF4A DNA FP: change in binding of human HNF4 alpha to DNA. activity change, % at 10 µM. AID 1224865. 360,000 compounds, 0.3% hits. P41235. HNF4a-FITC DNA binding, fluorescence polarization, 1 h; in the data active means activity change above about 30%, passing the limit was not always enough;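 further: controls were the assay level and a saturating level of protein; the project sought stronger binding though the title names inhibitors; some compounds called inactive have numbers as strong as hits; positive values seem to mean higher polarization but the record does not say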
# Vif A3G: HIV-1 Vif–A3G interaction blockers – biochemical, TR-FRET, GST-Vif 1-94, biotin-A3G peptide, dose response retest, primary screen (AID 1117319). TR-FRET GST-Vif / biotin-A3G peptide binding; higher % means a stronger effect; test concentration not given here; strong numbers were not always called active. one-dose inhibition, %; IC50 in µM for titrated hits. 260,000 compounds, 0.57% hits;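 active means above the screen mean plus three standard deviations and confirmed in dose response; inconclusive means results disagree or hit not tested in dose response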;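 further: Vif residues 1-94 fused to GST binding biotinylated APOBEC3G peptide 110-148; 0% = full assay without inhibitor and 100% = GST in place of GST-Vif; retest series ran down from 100 µM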
# UCH37 DUB inh: inhibitors of human deubiquitinating enzyme UCH37. 330,000 compounds, 0.33% hits. inhibition, % (no concentration beside the values). AID 588478. purified proteasome/UCH37, Ub-AMC cleavage fluorescence;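 active means mean of two replicates above 20%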;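 further: 0% = compound-free wells with enzyme and 100% = wells lacking proteasome; stock transfer was 100 nL into about 20 µL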
# Target sequence (Q9Y5K5 whole entry, looked up): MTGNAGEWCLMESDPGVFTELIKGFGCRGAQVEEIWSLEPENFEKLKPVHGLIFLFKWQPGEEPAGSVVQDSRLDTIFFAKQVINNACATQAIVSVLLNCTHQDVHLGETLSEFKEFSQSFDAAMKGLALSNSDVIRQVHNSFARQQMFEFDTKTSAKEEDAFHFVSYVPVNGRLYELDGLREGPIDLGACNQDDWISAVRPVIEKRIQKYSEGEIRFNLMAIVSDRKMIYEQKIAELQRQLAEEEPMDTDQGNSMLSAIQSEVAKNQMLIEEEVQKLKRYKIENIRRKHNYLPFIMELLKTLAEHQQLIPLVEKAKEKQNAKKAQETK
#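 system = Proteasome-associated human UCH37 deubiquitinase | amount = 0.15 nM proteasome as dispensed | medium = pH 7.4 Tris-HCl (50 mM) with ovalbumin, ATP-MgCl2, DTT | incubation = 30 min preincubation with enzyme, 25 min cleavage at room temperature | detection = AMC fluorescence 355/460 nm | read-out basis = percent inhibition | controls = no-proteasome and no-compound wells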
# E coli growth: E. coli growth inhibition; Escherichia coli growth, OD600, 23 h; stronger effect = lower value; OD600 absorbance (concentration not given with the values); 330,000 compounds, 0.21% hits;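 active means OD600 absorbance below the run mean of sample wells minus 3.6 SD, in any replicate, cut at about 0.56 in these data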;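 further: stock transfer was 300 nL into about 60 µL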
# RanGTP-Imp inh: inhibitors of RanGTP-importin-beta interaction, primary screen, biochemical, FRET, CFP-Ran, YFP-importin-beta, homogeneous; 300,000 compounds, 1.1% hits; cell-free CFP-Ran/YFP-importin-beta FRET ratio; inhibition, % (no concentration beside the values);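 active means most replicates above 15%; inconclusive means exactly half above 15%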;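 further: 0% = DMSO wells and 100% = Ran loaded with GDP instead of GTP; wells of about 40 µL received 100 nL stock; the first replicate is given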
# FGF22 binding: FGF22 (human) thermal shift binding; AID 651658; 340,000 compounds, 1.5% hits; Q9HCT0; recombinant FGF22 thermal shift, SYPRO orange fluorescence; percent of sucrose octasulfate shift, DMSO zero; calls only at 9.99 µM;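 active means melting point raised past a set limit in the mean and every replicate; inconclusive means no clear call; three in four hits are not shown here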
# Target sequence (Q9HCT0 whole entry, looked up): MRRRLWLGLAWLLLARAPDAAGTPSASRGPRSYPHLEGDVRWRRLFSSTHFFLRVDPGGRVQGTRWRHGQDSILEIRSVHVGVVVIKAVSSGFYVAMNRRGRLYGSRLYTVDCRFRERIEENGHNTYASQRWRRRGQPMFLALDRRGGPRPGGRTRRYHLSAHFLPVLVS
# * hit, by the source's call; i = inactive; ? = inconclusive; · = not tested or not shown; & = joins results of further samples. A portion of the library. The share of hits here may be higher or lower than overall.
SMILES,MLL AF4-AF9 inh,HNF4A DNA FP,Vif A3G,UCH37 DUB inh,E coli growth,RanGTP-Imp inh,FGF22 binding
CCS(=O)(=O)Nc1ccc(-c2nnc(SCC(=O)c3cccc(OC)c3)o2)cc1,·,0.7,-9%,6.0,0.78,0.1,·
COC(=O)Cn1cnc2c1c(=O)n(C)c(=O)n2C,·,-1.9,1%,-0.3,0.69,1.3,·
CC(C)(C)c1ccc(NC(=O)CC2(C(F)(F)F)OCCO2)cc1,·,1.6,-3%,5.3,0.67,1.9,·
CN(CC(=O)Nc1cccc(F)c1)CC(=O)N(C)c1c(N)n(Cc2ccccc2)c(=O)[nH]c1=O,-3.4,1.0,·,1.8,0.64,·,i
CC(C(=O)Nc1ccccc1-c1ccccc1)N(C)Cc1nc2ccccc2c(=O)[nH]1 (stereo unspecified),2.9,4.7,·,0.4,0.58,-3.3,i
CC(=O)Nc1nnc(S(=O)(=O)N2CCN(c3ccc(Cl)cc3[N+](=O)[O-])CC2)s1,2.4,-1.8,·,3.0,0.71,-0.3,i
Cc1nn(C)c(C)c1S(=O)(=O)N1CCCC(C(=O)NCCc2ccc(Cl)cc2)C1 (stereo unspecified),0.2,-1.0,-5%,0.8,0.66,·,i
COc1ccc(C(O)c2nc(-c3ccc4c(c3)OCO4)cs2)cc1 (stereo unspecified),-6.2,1.9,·,·,·,·,i
O=C(COc1ccccc1)NCC(=O)N/N=C/c1ccc(O)cc1O,-4.9,-2.2,?,·,·,-2.3,·
Cc1cnc(Nc2nc3ccccc3o2)nc1C(=O)Nc1cccc(C(F)(F)F)c1,·,1.3,?,3.6,0.71,0.3,·
O=C(COc1ccc(S(=O)(=O)NCc2ccccc2)cc1Cl)NCc1ccccn1,0.6,1.3,·,1.1,0.71,1.8,i
CCc1ccc(CNC(=O)CCc2nnc(CCc3ccc(OC)cc3)o2)nc1,-0.4,-0.6,24%,3.9,0.7,1.3,i
O=C(Nc1ccc2oc(=O)c(C(=O)O)cc2c1)Oc1ccccc1,8.4,-3.3,4%,-110,0.66,·,·
CC(=O)NC1=NN(C(C)=O)C(c2ccccc2)S1 (stereo unspecified),-0.3,-1.3,·,2.0,0.69,3.7,i
Cc1csc(NS(=O)(=O)c2ccc(Cl)cc2)n1,-0.8,4.9,4%,3.7,0.66,-0.7,i
COC(=O)C1(C(F)(F)F)N=C(N(C)C)OC(N(C)C)=N1,·,-3.5,0%,1.2,0.74,7.4,·
O=C(CSCc1c(Cl)cccc1Cl)NCc1ccccn1,-1.1,-1.5,-5%,-2.0,0.72,-1.8,i
Clc1ccc2c(N/N=C/c3ccc(Br)cc3)ccnc2c1,1.7,15,-1%,·,·,-1.6,i
CN(C(=O)CCCN1C(=O)c2cccc3cccc(c23)C1=O)c1ccccc1,2.6,-3.0,·,-1.2,0.71,-0.2,i
Cc1ccc(S(=O)(=O)N2C[C@@H]3[C@H]4CC[C@H](C4)[C@@H]3[C@@H](C)[C@@H]2c2ccco2)cc1,-2.4,-2.0,-2%,-1.8,0.72,·,i
Cc1ccc(C)c(OCCC(=O)OCC(=O)NC(=O)NC2CCCCC2)c1,-16,-3.1,-3%,-1.5,0.71,·,·
CC(NC(=O)CCn1c(=S)[nH]c2ccsc2c1=O)c1ccccc1 (stereo unspecified),-1.0,2.4,·,1.6,0.69,7.2,i
C#CCOCCOCCOCCNc1nc(N2CCN(C(=O)Cn3cc(CCCN=C(N)N)nn3)CC2)nc(N2CCN(C(=O)[C@H]([C@@H](C)O)n3cc(CCCCN)nn3)CC2)n1,13,3.5,·,-0.1,·,·,i
CCN(C(=O)COC(=O)c1c(-c2ccccc2)noc1C)C1CCS(=O)(=O)C1 (stereo unspecified),·,1.4,1%,2.9,0.74,0.8,·
CCC(C)(C)NC(=O)CSc1nc(Cc2ccccc2)nc2ccccc12,-2.4,0.3,·,4.1,0.69,?,i
Cc1cc(C[n+]2ccccc2)c2nsnc2c1,·,-4.0,24%,-65,0.66,3.1,·
CN(Cc1ccccc1)C(=O)c1nc[nH]c1C(=O)N1CCN(C(=O)OC(C)(C)C)CC1,-2.2,-1.9,·,0.8,0.71,·,i
CC1CCCN(CC(O)CN2CCN(CC(O)CN3CCCC(C)C3)C(C)C2)C1 (stereo unspecified),0.7,0.9,45%,0.9,0.68,·,i
COc1ccc(S(=O)(=O)N(CC(=O)NCc2ccccn2)Cc2ccccc2)cc1,2.3,1.8,0%,1.7,0.69,3.0,i
O=C(NC1CCC(O)CC1)c1ccc(S(=O)(=O)NCc2ccco2)cc1 (stereo unspecified),·,-0.1,?,1.5,0.71,-0.7,·
O=C(CN1CCN(c2ccccc2)CC1)Nc1ccc(-n2cnnn2)cc1,1.8,-4.5,-2%,2.1,0.71,?,·
CCn1c(SCC(=O)N2CCc3ccccc3C2)nc2c1c(=O)n(C)c(=O)n2C,·,-3.6,-3%,-0.7,0.74,1.3,·
CCc1cccc(CC)c1NC(=S)N1CCn2cccc2C1c1cccnc1 (stereo unspecified),·,0.8,·,1.1,0.65,-1.3,·
COCn1c(C(O)c2ccccc2)cc2ccccc21 (stereo unspecified),1.1,-3.2,·,2.6,0.68,1.4,·
NC(=O)COC(=O)c1cc(Cl)cc(Cl)c1N,-3.7,-2.1,-10%,i,0.67,0.3,i
Cc1nc2ccccc2c2c1C(=O)N(C)C2=O,1.5,0.0,-1%,4.2,0.7,-2.8,i
N#Cc1cnc(NCc2ccc(Cl)cc2Cl)nc1,-1.7,0.1,-2%,0.5,0.69,-2.0,i
COc1ccc(C(=O)N2CCN(c3ccccc3OC)CC2)cc1,-4.8,1.0,-1%,·,·,0.7,i
Cc1ccccc1-c1cnc(C(O)c2ccc(C(C)(C)C)cc2)[nH]1 (stereo unspecified),0.8,-2.2,·,·,·,·,i
COc1cc(S(=O)(=O)N2CCCCC2)ccc1NC(=O)Cc1ccccc1,7.0,2.7,0%,-3.0,0.73,1.0,i
COc1ccc(N(CC(=O)NCc2ccc(Cl)cc2)S(=O)(=O)c2c(C)noc2C)cc1,0.2,-0.3,6%,4.0,0.69,4.2,i
N=c1sccn1CC(=O)Nc1ccc2c(c1)CCC2,·,5.0,60%,5.2,0.68,0.6,·
O=C(NCc1ccc(F)cc1)c1cnc(-c2ccccn2)nc1C(F)(F)F,·,-1.5,-2%,0.3,0.72,2.8,·
CCOC(=O)CSc1nnc(Cn2c(=O)sc3ccccc32)n1-c1ccccc1C,-3.1,0.3,33%,3.8,0.71,4.3,i
O=C(Nc1cccc(C(=O)N2CCCC2)c1)c1ccccc1Cl,·,-2.1,-2%,-0.5,0.64,8.1,·
CCOc1cc2[nH]c(=S)n(CCC(=O)NCc3ccco3)c(=O)c2cc1OCC,-1.0,0.4,-1%,1.9,0.69,1.9,·
CC(C)(C)NC(=O)/C(=C\c1cccnc1)NC(=O)c1ccco1,-0.6,1.3,-1%,4.5,0.71,2.7,i
O=C(c1ccccc1)N(C1=NCCCCS1)c1ccccc1,-3.2,-0.4,-4%,1.7,0.65,6.2,i
CC1CCc2c(C(=O)Nc3ccc(N4CCOCC4)cc3)csc2C1 (stereo unspecified),0.4,3.4,17%,3.1,0.72,-3.5,i
COc1ccc(/C=C/C(=O)Nc2nc(C)c(C(=O)N(C)C)s2)cc1,·,1.8,-9%,11,0.65,6.7,·
COc1ccc(N2CCN(S(=O)(=O)c3ccc4c(c3)NC(=O)C(C)S4)CC2)cc1 (stereo unspecified),-1.0,1.1,-4%,1.6,0.65,-2.4,i
CC(=O)c1ccc(NC(=O)C(C)OC(=O)CCCN=C2NS(=O)(=O)c3ccccc32)cc1 (stereo unspecified),-11,1.6,-16%,1.0,0.63,?,·
c1ccc2c(c1)oc1c(NCCN3CCOCC3)ncnc12,·,0.8,7%,0.8,0.65,-5.7,·
COc1ccc(C(=O)N/C(=C\c2ccccc2)C(=O)NCc2cccnc2)cc1,-3.5,-1.0,4%,1.5,0.59,?,i
C[C@H]1CN([C@@H](C)CO)C(=O)Cc2cc(NS(C)(=O)=O)ccc2O[C@@H]1CN(C)CC1CC1,-16,-1.8,·,1.9,·,·,i
Cc1cc(CN2CCCCC2C(=O)Nc2ccc(Oc3cccnc3)cc2)oc1C (stereo unspecified),1.3,2.4,-4%,1.6,0.7,4.4,i
O=C(N/N=C/c1cccnc1)c1ccccc1NS(=O)(=O)c1cccs1,-0.6,-5.6,2%,·,·,5.4,i
CCCn1c(SCC(=O)Nc2ccc3c(c2)OCCO3)n[nH]c1=O,-8.4,-1.3,2%,0.5,0.63,·,i
COCCNC(=O)c1ccc(-c2ccc(OC)cc2C)c2ccoc12,-0.9,-0.3,·,·,·,·,i
CC(C)C(=O)Nc1cccnc1,-3.4,-1.1,?,0.5,0.65,3.6,i

# Part of the list above, with values under each structure:
# Every second line gives: MLL AF4-AF9 inh, HNF4A DNA FP, Vif A3G, UCH37 DUB inh, E coli growth, RanGTP-Imp inh, FGF22 binding
> COc1ccc(/C=C/C(=O)Nc2nc(C)c(C(=O)N(C)C)s2)cc1
 : ·, 1.8, -9%, 11, 0.65, 6.7, ·
> COc1ccc(N2CCN(S(=O)(=O)c3ccc4c(c3)NC(=O)C(C)S4)CC2)cc1 (stereo unspecified)
 : -1.0, 1.1, -4%, 1.6, 0.65, -2.4, i

# Continuation:
SMILES,MLL AF4-AF9 inh,HNF4A DNA FP,Vif A3G,UCH37 DUB inh,E coli growth,RanGTP-Imp inh,FGF22 binding
O=C(NNC(=O)c1ccc(SCC2CCCO2)c([N+](=O)[O-])c1)c1ccc(Cl)c([N+](=O)[O-])c1 (stereo unspecified),·,1.0,1%&-5%,4.9,0.69,0.0,·
CCOc1cc(/C=C/C(=O)OCC(=O)N(CC)C2CCS(=O)(=O)C2)cc(Cl)c1OC (stereo unspecified),-2.2,-4.2,·,·,·,·,i
Oc1ccc(/C=N/NC2=NCCCCC2)c(O)c1,·,1.2,4.9µM*,·,·,-1.4,·
Cc1cccnc1NC(=O)Nc1cccc(C(F)(F)F)c1,·,1.9,29%,1.6,0.73,-5.0,·
COc1ccc(OC)c(C2=Nn3c(nnc3-c3ccncc3)SC2)c1,3.5,1.1,·,0.1,0.68,-0.3,i
CSc1ccccc1C(=O)C1CCCN(C(=O)CCc2cccnc2)C1 (stereo unspecified),2.0,-3.5,8%,-3.2,0.63,-3.0,i
Cc1cc(=O)oc2cc(OC(C)C(=O)Nc3ccc(N4CCCCC4)cc3)ccc12 (stereo unspecified),-3.3,2.7,·,-2.6,0.67,2.6,i
COC(=O)c1cnc2c(c1C(=O)OC)c(=O)n(C)c(=O)n2C,4.7,1.3,11%,-28,0.67,1.1,i
O=C(N(c1ccccn1)c1ccccn1)C12CC3CC(CC(Cl)(C3)C1)C2,-4.7,4.1,2%,4.0,0.73,-0.1,i
CCC(C)Sc1nc2c(c(=O)[nH]c(=O)n2C)n1C (stereo unspecified),·,-3.0,21%,5.1,0.68,4.8,·
Cc1cc(NS(=O)(=O)c2ccc(NC(=O)c3cnc4scc(C)n4c3=O)cc2)nc(C)n1,7.7,2.9,1%,9.6,0.73,0.7,i
O=C1c2ccccc2S(=O)(=O)N1CCCN1C(=O)c2ccccc2S1(=O)=O,0.1,1.3,-3%,2.7,0.69,·,·
Cc1cccn2c(=O)c(C=NCCO)c(NCc3ccco3)nc12,·,-3.5,-4%,2.6,0.67,4.3,·
CCN(CC)C(=O)c1cc(Cl)ccn1,-4.0,-0.3,-5%,2.7,0.73,-2.5,i
COc1ccc(CNC(=O)C(C)OC(=O)CO/N=C(\C)c2ccc3c(c2)OCO3)cc1 (stereo unspecified),-1.3,-1.7,-4%,·,·,0.1,i
Nc1nnc(SCC(=O)OCC(=O)c2ccccc2Br)s1,2.0,-3.0,·,0.7,0.69,·,i
